Compound activity deposited in PubChem BioAssay by National Center for Advancing Translational Sciences (NCATS).
Vaccinia Venus – vaccinia inhibition (Venus reporter); Vaccinia virus Venus reporter expression, fluorescence; Potency, µM (top dose mostly 36.5 µM), without a hit: top-dose activity change, negative = inhibition, usual class: inhibitors; actives 0.46% (n = 330,000); active means well fitted inhibition curve with a large enough effect; inconclusive means small, poorly fitted or top-dose-only effect; inactive means no such curve, though single readings can be large or run the other way; tested in A549 cells; also: nearly all actives have a fitted effect of over 30% in size; inactives centre near -10
Vaccinia mCherry – vaccinia inhibition (mCherry reporter) | Vaccinia virus mCherry reporter infection, fluorescence; about a quarter of the inactives have no number | Potency, µM (series often up to 36.5 µM), without a hit: at the top dose activity change, negative = inhibition, usual class: inhibitors | actives 0.63% (n = 310,000); active = well fitted inhibition curve with a large enough effect; inconclusive = small, poorly fitted or top-dose-only effect; inactive = no such curve, though single readings can be large or run the other way; tested in A549 cells; also: nearly all actives have a fitted effect of over 35% in size; inactives centre near -10
An asterisk follows results filed as active; i = inactive; ? = inconclusive; . = no result given; & = joins results of further samples. % is scaled to controls: 0 for no effect and ±100 for the full control effect; potency is read from the fitted curve at half-maximal effect.

SMILES	Vaccinia Venus	Vaccinia mCherry
C[C@@H]1C[C@H]2[C@@H]3CCC4=CC(=O)C=C[C@]4(C)[C@@]3(F)[C@@H](O)C[C@]2(C)[C@@]1(O)C(=O)CO	-6%&-8%&-8%	-14%&-15%
COc1ccccc1-n1c(SCC(N)=O)nnc1-c1ccc(S(=O)(=O)N2CCCCC2)cc1	-5%	i
CCn1cc(C(=O)NCCCN2CC(C)CC(C)C2)c(=O)c2cc(S(=O)(=O)N(C)C)ccc21 (stereo unspecified)	-5%	-13%
CCOC(=O)Cc1cc(=O)[nH]c(/N=C(/NC(=O)c2ccccc2)Nc2ccccc2C(F)(F)F)n1	-21%	-13%
O=C(NCC1CCCO1)c1ccccc1NS(=O)(=O)c1cccs1 (stereo unspecified)	-3%	i
COc1ccc(-n2nc(C(=O)NCC(=O)Nc3ccccn3)c3ccccc3c2=O)cc1Cl	-3%	-11%
CC(C)c1ccc(N(C(=O)c2snc(C(N)=O)c2N)C(C(=O)NCC2CCCO2)c2ccc(N(C)C)cc2)cc1 (stereo unspecified)	?	?
CSc1ccc(-c2ccc3c(c2)c(Sc2ccccc2)c(-c2ccccc2)n3C)cc1	8%	-3%
CC(NC(=O)CSC1=NCCS1)c1ccccc1 (stereo unspecified)	-6%	-2%
Cc1ccccc1-c1cc(C(=O)NCc2cccc(C(F)(F)F)c2)n(CC2CC(c3cccnc3)=NO2)n1 (stereo unspecified)	-14%	0%
CCCCn1c(SCC(=O)N2CCN(c3ccccc3)CC2)nc2ccsc2c1=O	-24%	-23%
CCOc1ccc(NC(=O)c2ccccc2-c2ccccc2C(=O)O)cc1	-24%	-11%
O=C(CN1CCOc2ccccc21)NC1CC1	4%	-3%
Cc1ccc(C)c(CSC2=NCCN2C(=O)Cc2ccc([N+](=O)[O-])cc2)c1	-7%	-23%
Oc1ccc(C[C@H]2CN([C@@H](Cc3ccccc3)CN3CCCC3CN3C(=S)NC[C@@H]3Cc3ccccc3)C(=S)N2CC2CCCCC2)cc1 (stereo partly specified)	-10%	1%
COc1ccc(-c2cc(C(=O)N(C)Cc3ccc(F)cc3)c3ccccc3n2)cc1OC	-16%	-25%
COc1ccc(CCNC(=O)N2CCOCC2)cc1	-14%	i
OCCOCCn1c(CCNc2nc(-c3ccc(F)cc3)cs2)nc2cc(C(F)(F)F)ccc21	-19%	-8%
CCOCCCn1c(=N)c(S(=O)(=O)c2ccccc2)cc2c(=O)n3cc(C)ccc3nc21	3%&-6%	-13%&-15%
CCOC(=O)C1=C(CC)Nc2ccccc2N=C1NC(=O)c1cccc(S(=O)(=O)N2CCCC2)c1	-5%	i
CCOC(=O)c1ccc(Nc2nc(N)c3cc(OC)c(OC)cc3n2)cc1	-30%	?
CCCc1nc(SCC(=O)Nc2ccc(S(=O)(=O)N(C)C)cc2)c2ccccc2n1	-18%	i
OCCNCc1ccc(OC2CCCC2)cc1	-9%	i
Nc1nc(SCC(=O)Nc2ccc([N+](=O)[O-])cc2Br)n[nH]1	-16%	-24%
CN(C)C(CNC(=O)c1ccc(NC(=O)c2cccs2)cc1)c1ccccc1 (stereo unspecified)	1%	-6%
Cc1ccc(NC2=C(NCCO)C(=O)c3ccccc3C2=O)cc1	-26%	?
COc1ccc(C(=O)NCCn2cc(SCc3cccc(F)c3)c3ccccc32)cc1OC	-26%	-29%
C=CCn1c(SCCOc2ccc(OC)cc2)nnc1C(C)NC(=O)c1ccc(OC)cc1 (stereo unspecified)	-15%	i
Cc1cccc(N(CC(=O)NCc2ccco2)C(=O)CNS(=O)(=O)c2ccc(F)cc2)c1	-2%	-8%
CCCCNC(=O)c1cnn2c(C)c(Cc3c(F)cccc3Cl)c(C)nc12	-17%	-25%
Cc1cccc(NC(=O)C2CC(=O)n3cnnc3S2)c1 (stereo unspecified)	3%	-9%
Cc1ccccc1NC(=O)CCc1c(C)nn(-c2ccc(N3CCOCC3)nn2)c1C	-25%	-17%
COc1ccc(C(C(=O)NC2CCCC2)N(C(=O)c2snc(C(N)=O)c2N)c2cccc(O)c2)cc1 (stereo unspecified)	-18%	-3%
COc1ccc(/C=N/NC(=S)Nc2cc(S(=O)(=O)N3CCOCC3)ccc2N2CCOCC2)cc1O	?	-26%
O=C(C1CCCN(S(=O)(=O)c2ccc(F)cc2)C1)N(Cc1cccs1)C1CC1 (stereo unspecified)	?	i
Cn1c(-c2ccc(F)cc2)cnc1SCC(=O)NNC(=O)Cc1ccccc1	-7%	-2%
FC(F)(F)c1nc(SCc2ccc(Cl)cc2Cl)n[nH]1	-11%	-26%
Cc1cccc2sc(N(Cc3cccnc3)C(=O)C3CCCCC3)nc12	-3%	i
O=C(O)c1ccc2c(c1)C(=O)N(CCc1c[nH]c3ccccc13)C2=O	-4%	i
CCOc1ccc(NC(=O)c2ncn(-c3ccccc3)n2)cc1	-5%	-16%
COc1ccccc1N1C(=O)c2cccc3c(C(=O)O)ccc(c23)C1=O	-2%	-11%
O=C1CS(=O)(=O)C2(C(=O)N(Cc3cccc(F)c3)c3ccccc32)N1c1ccccc1 (stereo unspecified)	-1%	-8%
Cn1c(=O)c2c(nc(NC3CCCCC3)n2CC(O)COc2ccccc2)n(C)c1=O (stereo unspecified)	14%	0%
C[C@H](CO)N1C[C@H](C)[C@@H](CN(C)Cc2ccc(Oc3ccccc3)cc2)Oc2ccc(NC(=O)Cn3cnnn3)cc2C1=O	-7%	-11%
O=CN(CCNc1ccccc1)c1ccccc1	-11%	i
COc1ccc2c(c1)CCc1cn3ncc(C#N)c3nc1-2	-13%	i
CCOc1cc(C(=O)Nc2cc(C)ccc2OC)ccc1OCC(=O)N1CCCCC1	-15%	-14%
CCOCc1nnc(NC(=O)c2cc(Cl)ccc2OC)s1	-8%	-7%
CCOc1ccc(CNc2nc3nc(C)c(Cc4ccccc4)c(=O)n3[nH]2)cc1	-11%	0%
COc1ccc(OCC(=O)NNC(=O)c2ccc3c(=O)n4c(nc3c2)CCC4)cc1	-10%	i
COc1ccc(Cl)cc1-c1nc(SCC(=O)NC(C)C)n[nH]1	-14%	i
COc1ccc(CNC(=O)CS(=O)Cc2nc(-c3cccc(C)c3)oc2C)cc1 (stereo unspecified)	-8%	-15%
CC(=O)N1CCN(c2csc3ccc(Cl)cc3c2=O)CC1	-10%	-4%
N#Cc1nc(-c2cccs2)oc1N1CCOCC1	-3%	-17%
CCOC(=O)CNC(=O)N1CCC(CCOc2ccccc2)(C(=O)OCC)CC1	-1%	-8%
COC(=O)C1C(=O)NCC1c1ccc(OC)cc1 (stereo unspecified)	-5%	i
CCOc1ccc(-n2c(SCc3cc(=O)oc4cc(C)c(C(C)C)cc34)nnc2-c2cccnc2)cc1	-6%	-16%
O=S1(=O)c2ccccc2OC(COCc2ccccc2)CN1Cc1ccccc1 (stereo unspecified)	-18%	-3%
CCCC(C)C1(CC)C(=O)N=C(S)NC1=O (stereo unspecified)	0%	i
CCCCN(CC)C(=O)Cc1ccccc1OC	?	.

A few values from the results shown:
CC(=O)N1CCN(c2csc3ccc(Cl)cc3c2=O)CC1 in Vaccinia mCherry is entered as -4%
COc1ccc(OCC(=O)NNC(=O)c2ccc3c(=O)n4c(nc3c2)CCC4)cc1 in Vaccinia Venus is entered as -10%
COc1ccc(CNC(=O)CS(=O)Cc2nc(-c3cccc(C)c3)oc2C)cc1 (stereo unspecified) in Vaccinia Venus is entered as -8%
CCOc1ccc(CNc2nc3nc(C)c(Cc4ccccc4)c(=O)n3[nH]2)cc1 in Vaccinia Venus is entered as -11%
CCOc1ccc(-n2c(SCc3cc(=O)oc4cc(C)c(C(C)C)cc34)nnc2-c2cccnc2)cc1 in Vaccinia Venus is entered as -6%
N#Cc1nc(-c2cccs2)oc1N1CCOCC1 in Vaccinia mCherry is entered as -17%

Next section
SMILES	Vaccinia Venus	Vaccinia mCherry
C[C@@H]1C(=O)O[C@H]2[C@H]1CC[C@@]1(C)C(=O)C=C[C@@](C)(O)[C@H]21	-11%	-13%
Cc1cnc(SCc2ccccn2)nc1C1CCCN(C(=O)c2ccc3[nH]c(C)c(C)c3c2)C1 (stereo unspecified)	-28%	?
CCc1ccc(OC)c(-c2csc(N)n2)c1	-27%	-22%
COc1ccc(S(=O)(=O)N2CCC(C(=O)NC3(C)CCS(=O)(=O)C3)CC2)cc1OC (stereo unspecified)	-6%	-12%
Cc1ccc(-c2[nH]ncc2/C=N/n2c(COc3ccccc3)nc3ccccc3c2=O)cc1	?	-20%
CCOc1ccc(S(=O)(=O)NCC(c2cccs2)S(=O)(=O)c2ccc(C)cc2)cc1 (stereo unspecified)	-11%	i
O=C(NCCN1CCOCC1)c1cccc(S(=O)(=O)N2CCCCC2)c1	-2%	i
COc1cc2[nH]c(C(=O)NCc3ccccc3)cc2c(OC)c1OC	?	-11%
CCN(CC(=O)NCc1ccc(Cl)cc1)C(=O)CSc1ccccc1	-25%	?
COc1ccc(NC(=O)COc2ccc(C)cc2)c([N+](=O)[O-])c1	-9%	i
O=C(CCNS(=O)(=O)c1cccs1)N1CCCCCC1	-1%	.
COc1ccccc1NC(=O)c1ccc(C(=O)Nc2ccccc2OC)nc1	8%	i
O=C(CSc1nc(=O)[nH]c2c1CCCC2)Nc1cc(C(F)(F)F)cc(C(F)(F)F)c1	-5%	i
CC(C)(C)NC(=O)Cn1c(=O)n(CC(=O)NC(C)(C)C)c2ccccc21	-13%	-22%
C/C(=N\NC(=O)C1CC1c1ccccc1)c1cccc([N+](=O)[O-])c1 (stereo unspecified)	-26%	.
CC(C)Nc1c([N+](=O)[O-])c(=O)oc2ccccc12	-15%	-14%
Cc1cccnc1NC(=O)C(c1ccccc1)c1ccccc1	-4%	-27%
O=C1OC(c2ccccc2)=C/C1=C/N1CCOCC1	-2%	i
CC(C)OC(=O)CSc1nnnn1-c1ccc2c(c1)OCCO2	-15%	-3%
CC1=C(C(=O)N2CCOCC2)CC(CC(=O)NCc2cccc3ccccc23)C(=O)N1Cc1ccc(C(C)(C)C)cc1 (stereo unspecified)	-17%	-8%
O=C(Nc1cccc(F)c1)C1CCN(c2nc3ccccc3nc2C(F)(F)F)CC1	3%	4%
S=C(NCCCN1CCOCC1)N1CCN(c2nc(-c3ccccc3)cs2)CC1	?	?
CCC(=O)Nc1nonc1-c1nc2ccccc2n1Cc1cccc2ccccc12	?	?
Cc1cc(C)n(-c2nc3ccccc3nc2Nc2ccc3c(c2)OCO3)n1	-4%	-23%
CC1CC(C)CN(C(=O)COC(=O)c2ccc3ccccc3n2)C1 (stereo unspecified)	1%	-12%
C[C@@H]1CN([C@@H](C)CO)C(=O)c2cc(Br)cnc2O[C@H]1CN(C)S(=O)(=O)c1cccs1	-7%	-11%
CC(=O)c1ccc(NC(=O)c2cc(C)nn2-c2ccccc2)cc1	-9%	-3%
CN1CCN(c2ccc(CNC(=O)c3cc4ccccc4o3)cc2)CC1	-2%	-11%
COc1ccc(CCNC(=O)C2(C)CCC(=O)N2Cc2ccc(C)cc2)cc1OC (stereo unspecified)	-17%	i
COCCNC(=O)N1[C@H]2CC[C@@H]1C(C(=O)OC)=C(c1ccc(OC)c(OC)c1)C2	-12%	-20%
COc1ccc(-c2ccc3c(c2)CN(CC(C)C)Cc2cnnn2-3)cc1	0%	33%
Cc1ccc(C)n1Cc1ccccc1Cl	-11%	-2%
Cc1ccc(O)c(NC(=O)c2cc(-c3ccc4c(c3)OCO4)on2)c1	-3%	-13%
COc1ccc(-c2cc3c(=O)n(CC(=O)NCc4cccnc4)ncn3n2)cc1	-3%	i
O=C(O)c1ccccc1C(=O)c1cccc2c(Br)cccc12	-2%	i
CC(=O)Nc1ccccc1C(=O)N1CC2(C)CC1CC(C)(C)C2 (stereo unspecified)	-10%	-9%

A portion from the list above:
SMILES	Vaccinia Venus	Vaccinia mCherry
COc1ccc(-c2ccc3c(c2)CN(CC(C)C)Cc2cnnn2-3)cc1	0%	33%
Cc1ccc(C)n1Cc1ccccc1Cl	-11%	-2%
Cc1ccc(O)c(NC(=O)c2cc(-c3ccc4c(c3)OCO4)on2)c1	-3%	-13%
COc1ccc(-c2cc3c(=O)n(CC(=O)NCc4cccnc4)ncn3n2)cc1	-3%	i
O=C(O)c1ccccc1C(=O)c1cccc2c(Br)cccc12	-2%	i
CC(=O)Nc1ccccc1C(=O)N1CC2(C)CC1CC(C)(C)C2 (stereo unspecified)	-10%	-9%

The list goes on:
SMILES	Vaccinia Venus	Vaccinia mCherry
Cc1cc(C)c(S(=O)(=O)c2ccccc2)c(OC(=O)c2c(Cl)cccc2Cl)n1	-23%	-25%
C/C(N)=C(/C#N)C(=O)CSc1nnc(COc2cc(C)ccc2C)o1	?	?
CCOC(=O)Cn1c(=O)oc2cc(S(=O)(=O)NCCc3ccc(OCC)c(OCC)c3)ccc21	1%	-9%
NC(=O)c1ccccc1NC(=O)Cc1cccs1	-6%	i
COc1cccc(CSc2nc3n(n2)C(CC(C)C)C(C(=O)Nc2ccccc2C)=C(C)N3)c1 (stereo unspecified)	7%	1%
Cc1cc(C)cc(NC(=O)C2(c3cccs3)CCOCC2)c1	-1%&-11%	-9%&-17%
Cc1ccc(C)c(NC(=O)Cn2c(=O)ccc3cc(S(=O)(=O)N4CCCC4)ccc32)c1	1%	8%
Cc1nc([N+](=O)[O-])nn1C12CC3CC(CC(Br)(C3)C1)C2	-11%	i
c1ccc(Sc2ccccc2CN2CCCC2)cc1	-15%	-18%
COc1ccc(C(=O)C2CCCN(Cc3ccon3)C2)c(OC)c1 (stereo unspecified)	-12%	0%
CCOc1ccc(CCNC(=O)CCCn2c(=O)c3cccn3c3cccnc32)cc1OCC	-14%	-23%
Cc1ccc(CCN2CC(C(=O)NCc3cccnc3)CC2=O)cc1 (stereo unspecified)	1%	i
